VACV Venus inh = qHTS for Stage-Specific Inhibitors of Vaccinia Orthopoxvirus: Venus Reporter Primary qHTS | AID 720580, 2013 | Vaccinia virus Venus reporter expression, fluorescence | Potency, µM (doses to about 36.5 µM), for inactives: at the top dose activity change, negative = inhibition, usual class: inhibitors | 330,000 tested, 0.46% active; active means well fitted inhibition curve with a large enough effect; inconclusive means small, poorly fitted or top-dose-only effect; inactive means no such curve, though single readings can be large or run the other way; tested in A549 cells; note: nearly all actives have a fitted effect of over 30% in size; inactives centre near -10
Vaccinia mCherry = qHTS for Stage-Specific Inhibitors of Vaccinia Orthopoxvirus: mCherry Reporter Primary qHTS; Potency, µM (doses to about 36.5 µM), for the others: at the highest dose activity change, negative = inhibition, actives largely listed as inhibitors; AID 720579, 2013; Vaccinia virus mCherry reporter infection, fluorescence; about a quarter of the inactives have no number; 310,000 tested, 0.63% active; active = well fitted inhibition curve with a large enough effect; inconclusive = small, poorly fitted or top-dose-only effect; inactive = no such curve, though single readings can be large or run the other way; tested in A549 cells; note: nearly all actives have a fitted effect of over 35% in size; inactives centre near -10
Starred values were filed as active, the others as inactive; i = inactive; ? = inconclusive; · = no result given; & = joins results of further samples; [ ] = dose if it differs, or a comment. % is set by controls: 0 for no effect and ±100 for the full control effect; potency is the fitted concentration of half-maximal effect.

Start of the listing, in advance:
Results follow in this order: VACV Venus inh	Vaccinia mCherry
CN(C)C(=O)c1cc(C(=O)c2c(F)cccc2F)c[nH]1
→ 8%	-1%
CC1CN(CCS(=O)(=O)c2cc(Cl)ccc2Cl)CC(C)O1 (stereo not given)
→ ?	11µM*
CC(C)(C)c1ccc(OCC(=O)Nc2ccc(Cl)cc2C(=O)c2ccccc2)cc1
→ -3%	-11%
NC(=O)Oc1cccc(OC(N)=O)c1
→ -14%	i

This part in full, from the first entry:
Results follow in this order: VACV Venus inh	Vaccinia mCherry
CN(C)C(=O)c1cc(C(=O)c2c(F)cccc2F)c[nH]1
→ 8%	-1%
CC1CN(CCS(=O)(=O)c2cc(Cl)ccc2Cl)CC(C)O1 (stereo not given)
→ ?	11µM*
CC(C)(C)c1ccc(OCC(=O)Nc2ccc(Cl)cc2C(=O)c2ccccc2)cc1
→ -3%	-11%
NC(=O)Oc1cccc(OC(N)=O)c1
→ -14%	i
Cc1cc(Cl)c(OCCCn2ccnc2)c(Br)c1
→ -22%	0%
CCCNC1=CC(=O)CC(C)(C)C1
→ -9%	-8%
O=C1C=CC(=Nc2ccc(F)cc2)O1
→ 6%	-14%
c1ccc(-n2nnnc2N2CCOCC2)cc1
→ -7%	·
CCN(CC)c1ccc(-c2nn3c(-c4n[nH]c5c4CCC5)nnc3s2)cc1
→ ?	·
CCOc1ccccc1CNC(=O)c1ccc(NC(=O)N2CC(C)Sc3ccccc32)cc1 (stereo not given)
→ -12%	-6%
COC(=O)Oc1ccc(/C=C/C(=O)OC(C)C)cc1OC(=O)OC
→ -12%	?
COc1ccccc1-c1cc(C(=O)Nc2sc3c(c2C#N)CCCC3)no1
→ -9%[7.34 µM]	-1%[7.34 µM]
O=C(O)CC1c2ccccc2CCN1S(=O)(=O)c1ccccc1 (stereo not given)
→ -3%[7.34 µM]	i[7.34 µM]
CC1C(=O)Nc2ccc(S(=O)(=O)N3CCN(c4cccc(Cl)c4)CC3)cc2NC1=O (stereo not given)
→ -13%	11%
Cc1cc(C)cc(-n2ccnc2SCC(=O)Nc2ccc(C)cc2C)c1
→ -9%	i
COc1cccc(NC(=O)N(Cc2cc3cc(C)cc(C)c3[nH]c2=O)CC2COCCO2)c1 (stereo not given)
→ -19%	-7%
O=C(NCc1ccccc1Cl)c1ccc(NC(=O)N2CCSc3ccccc32)cc1
→ -11%	-5%
CCC(=O)Nc1c(C)cc(C)cc1Cl
→ -14%	-10%[1.46 µM]
CC(C)CNC(=O)c1c(N)n(/N=C/c2ccccn2)c2nc3ccccc3nc12
→ 6%	-14%
CC(C)c1nn2c(=O)cc(O)nc2s1
→ -13%	i
CC(C)CN(C(=O)c1ccc(=O)n(C)n1)c1c(N)n(Cc2ccccc2)c(=O)[nH]c1=O
→ -8%	-10%
CC[C@]1(C(=O)OC)[C@H]2C(=O)N(C)C(=O)[C@H]2[C@H]2CN=C(SCc3ccccc3)N21
→ -16%	?
Cc1ccccc1N=C1NC(=O)CS1
→ -4%	-10%
COc1ccccc1CCC(=O)Nc1ccc(S(=O)(=O)Nc2cc(C)nc(C)n2)cc1
→ -17%	i
COc1cc(CC(=O)OCC(=O)N2CCCCC2)cc(OC)c1OC
→ -4%	5%
Cc1c(Cl)cnc(NC(=O)CSc2nnc(C)n2Cc2ccccc2)c1Cl
→ -14%	·
COc1ccc(C(c2c(C)n(C)n(-c3ccccc3)c2=O)c2c(C)n(C)n(-c3ccccc3)c2=O)cc1O
→ -10%	-18%
Cc1cc(C)c2c(n1)nn1c(N3CCN(Cc4ccccc4)CC3)cc(C)nc21
→ -10%	-13%
C/C(=N/NC(=O)c1ccc(Cl)s1)c1ccc(NC(=O)COc2ccc(Cl)cc2)cc1
→ -13%	i
CC(C)NC(=O)COCc1cc(-c2ccc3c(c2)OCO3)on1
→ -5%	-15%
CCn1c(=O)c2[nH]c(Cl)nc2n(CC)c1=O
→ -8%	-12%
Cc1ccc(-c2nn(CC(=O)NCc3ccccn3)c(=O)c3ccccc23)cc1S(=O)(=O)N(C)C
→ -12%	-6%
O=C(COC(=O)Cc1ccc(Br)cc1)NCC1CCCO1 (stereo not given)
→ -13%	i
O=C(O)CCCNc1ccc(S(=O)(=O)N2CCCCC2)cc1
→ 7%	-2%
NS(=O)(=O)c1ccc(CCNC(=O)C(=O)c2c[nH]c3ccccc23)cc1
→ -14%	-7%
O=C(CCNS(=O)(=O)c1cccc2nonc12)NC1CCCCCC1
→ -3%	-8%
Cc1ccc(S(=O)(=O)N(C)CC(=O)N(C)Cc2cccs2)cc1
→ -11%	-9%
COCCn1c(SCC(=O)Nc2cc(OC)ccc2OC)nc2c(c1=O)SC(C)C2 (stereo not given)
→ -26%	i
Cc1cc(NC(=O)CSc2nnc(C(C)N(C)C)n2-c2ccc(F)cc2)no1 (stereo not given)
→ -3%	-2%
C=C(C)CNC(=S)N=Nc1c(O)[nH]c2ccc([N+](=O)[O-])cc12
→ -14%	-19%
CC(C)(C)SC(=O)CC1NS(=O)(=O)OCC1NC(=O)OCC(Cl)(Cl)Cl (stereo not given)
→ -14%	i
CCCn1c(SCC(=O)Nc2ccccc2Cl)nc(O)cc1=O
→ -11%	-12%
Cn1c(-[n+]2c(-c3ccccc3)cc(-c3ccccc3)cc2-c2ccccc2)nc2cc([N+](=O)[O-])ccc21
→ 0%	0%
Cc1ccc(-c2nn(-c3ccccc3)cc2CO)o1
→ -8%	-18%
Cc1cccc(Cn2cnc3c(cnn3-c3ccc(Cl)cc3)c2=O)c1
→ -5%	-5%
COc1cc(OC)c(C2C(C#N)=C(N)OC3=C2C(=O)CC(C)(C)C3)cc1OC (stereo not given)
→ ?	?
Cc1cc(CN2CCOCC2)c(O)c(C2(C)CCCCC2)c1
→ -1%	·
CCc1sc(NC(=O)C(C)C)nc1-c1ccccc1
→ -1%	i
Cc1cccc(CCNC(=O)C2CCC(CNS(=O)(=O)c3c(C)cc(C)cc3C)CC2)c1 (stereo not given)
→ -5%	0%
COc1ccc(NC(=O)N2CCN(c3cccc(C(F)(F)F)c3)CC2)cc1OC
→ -22%	-19%
Cc1ccc(NC(=O)NNC(=O)C2CC(c3cccnc3)=NO2)cc1 (stereo not given)
→ -8%	·
Cc1ccc(C(=O)c2c(NC(=O)c3ccccc3)sc(C)c2C)cc1
→ 0%	-9%
COc1ccccc1OCCNC(=O)c1ccc(C(C)(C)C)cc1
→ -9%	-21%
CC1(C(=O)NS(=O)(=O)Cc2cccc(Cl)c2)CCN1C(=O)CCc1ccccc1 (stereo not given)
→ -8%	11%
CCC(C)NC(=O)CSc1ccc(NC(C)=O)cc1 (stereo not given)
→ -10%	-11%
CCC1(c2ccccc2)NC(=O)N(CC(=O)c2ccc3c(c2)OCO3)C1=O (stereo not given)
→ -7%	-26%
O=C(c1ccccc1F)N1CCCC(N2CCN(Cc3ccc4c(c3)OCO4)CC2)C1 (stereo not given)
→ -14%	-3%
CS(=O)c1ccccc1-c1nc(-c2ccc([N+](=O)[O-])cc2)no1 (stereo not given)
→ -2%	0%
CCNC(=S)N/N=C/c1c(C)nn(-c2cccc(Cl)c2)c1Cl
→ ?	-6%
Cc1n(CC(=O)c2ccc(F)cc2)c2ccccc2[n+]1C
→ -12%	i

By substructure: the entries above containing a thiophene ring, fused or not (4)
Results follow in this order: VACV Venus inh	Vaccinia mCherry
COc1ccccc1-c1cc(C(=O)Nc2sc3c(c2C#N)CCCC3)no1
→ -9%[7.34 µM]	-1%[7.34 µM]
C/C(=N/NC(=O)c1ccc(Cl)s1)c1ccc(NC(=O)COc2ccc(Cl)cc2)cc1
→ -13%	i
Cc1ccc(S(=O)(=O)N(C)CC(=O)N(C)Cc2cccs2)cc1
→ -11%	-9%
Cc1ccc(C(=O)c2c(NC(=O)c3ccccc3)sc(C)c2C)cc1
→ 0%	-9%

New compounds follow:
Results follow in this order: VACV Venus inh	Vaccinia mCherry
COc1ccc(Nc2nc3ccccc3nc2C)cc1
→ 1%	-13%
COc1ccc(N2CCN(S(=O)(=O)c3cc4c(cc3C)N(C(C)=O)CCO4)CC2)cc1
→ -10%	-8%
O=[N+]([O-])c1ccccc1-n1cnc2ccccc21
→ -13%	-8%
O=C(Nc1nc(-c2nc3ccccc3s2)cs1)C1CC1
→ -16%	12%
CC[C@H](C)[C@@H](CN[C@H](C)CNC)NCCC(c1ccccc1)c1ccccc1
→ ?	?
COc1cccc(-c2cnc3c(NC(C)=O)cc(-c4ccsc4)cn23)c1
→ -5%	25%
OCCC1CN(Cc2cnn(-c3ccccc3Cl)c2)CCN1Cc1ccsc1 (stereo not given)
→ -9%	-6%
CCSc1nnc(NC(=O)c2nc(-c3ccccc3)n(-c3ccccc3)n2)s1
→ -12%	0%
CCC(COC(=O)c1cc(OC)c(OC)c(OC)c1)(c1ccccc1)N(C)C (stereo not given)
→ -12%&-11%&-14%&-10%	-13%&0%&-14%
CCN(CC)C(=O)C1CCC(C)(C(=O)O)C1(C)C (stereo not given)
→ -15%	-10%
O=C(c1cccc(Br)c1)N1CCN(C(=O)N2CCOCC2)CC1
→ -12%	i
CSCCC(NS(=O)(=O)c1ccccc1)C(=O)Nc1nccs1 (stereo not given)
→ -1%	i
COCCSc1nnc(NC(=O)CS(=O)(=O)c2ccccc2)s1
→ -2%	-3%
C[C@@H]1CN([C@H](C)CO)C(=O)CCCn2cc(nn2)CO[C@H]1CN(C)C(=O)NC1CCCCC1
→ -5%	i
COc1ccc(CCNc2cc(C)nc3c(-c4ccccc4)c(C)nn23)cc1OC
→ -15%	-9%
CCN1CCC(N(Cc2ccc(F)cc2)C(=O)Nc2ccc(C)c(F)c2)CC1
→ -16%	-19%
Cc1cc(CN(C)C)c(OC(=O)N(C)C)cc1C
→ -6%	i
CCOC(=O)[C@]12CCCC=C1N(Cc1ccc3c(c1)OCO3)C(=O)[C@H](CC(=O)N1CCN(C(=O)c3ccco3)CC1)C2
→ -3%	17%
COc1ccc(CCNC(=O)c2ccc(-c3cccc([N+](=O)[O-])c3)o2)cc1OC
→ -13%	-27%
COc1cc(NCC2COc3c(ccc(OC)c3OC)C2=O)c([N+](=O)[O-])cc1OC (stereo not given)
→ -13%	-21%
CCCC(c1nnnn1Cc1ccc(F)cc1)N1CCN(C2CCCCC2)CC1 (stereo not given)
→ -2%	·
Cc1cc(C)cc(-n2c(SCC(=O)Nc3ccccc3F)nc3c(oc4ccccc43)c2=O)c1
→ -9%	-11%
CC(C)CCNC(=O)COc1ccc(N(C)S(=O)(=O)c2ccc(F)cc2)cc1
→ -11%	i
COc1cc(NC(=O)c2cccc(NC3=NC4CS(=O)(=O)CC4S3)c2)cc(OC)c1OC (stereo not given)
→ 1%	i
CC1(c2nnc(-c3ccncc3)o2)CC(c2cccc(Cl)c2)=NO1 (stereo not given)
→ -6%	i
COc1ccc(/C(C)=N/OC/C(O)=C(\C#N)c2nc3ccccc3[nH]2)cc1
→ -17%	-3%
CS(=O)(=O)Nc1nnc(SCC(=O)N(c2ccccc2)c2ccccc2)s1
→ -7%	-10%
Cc1cccc(OCCSc2cc(C)nc(N)n2)c1
→ -11%	·
NC(=O)[C@H]1CC2(CC(c3cccc(NC(=O)[C@H]4CCC(=O)N4)c3)=NO2)CN1C(=O)c1cc([N+](=O)[O-])cc([N+](=O)[O-])c1 (stereo not given in full)
→ 2%	i
O=C(Nc1cc([N+](=O)[O-])c2[nH]c(=O)c3ccccc3c2c1)C(F)(F)F
→ -10%	-25%

A run of entries of the results above:
Results follow in this order: VACV Venus inh	Vaccinia mCherry
NC(=O)[C@H]1CC2(CC(c3cccc(NC(=O)[C@H]4CCC(=O)N4)c3)=NO2)CN1C(=O)c1cc([N+](=O)[O-])cc([N+](=O)[O-])c1 (stereo not given in full)
→ 2%	i
O=C(Nc1cc([N+](=O)[O-])c2[nH]c(=O)c3ccccc3c2c1)C(F)(F)F
→ -10%	-25%

Later entries:
Results follow in this order: VACV Venus inh	Vaccinia mCherry
CCc1ccccc1NC(=O)CC1Sc2ccc(C(F)(F)F)cc2NC1=O (stereo not given)
→ -3%	-16%
COc1ccc(CNC(=O)CCc2nc(-c3ccc(C)cc3)no2)c(OC)c1
→ -6%	i
Cc1ccc(NC(=O)COC(=O)c2ccco2)cc1S(=O)(=O)N1CCCCC1
→ -17%	-4%
CCOC(=O)Nc1ccc2nc(Sc3ccc(Cl)cc3)sc2c1
→ ?	?
O=C(CNc1ccccc1Cl)c1ccc(Br)cc1
→ -5%	i
C/C=C(\C)C(=O)NCCN1C2=NC[C@H](C(C)C)N2C[C@@H]1Cc1ccc(OC)cc1
→ -10%	?
COC(=O)C1=C(C)N(CCCC(=O)O)C(=O)NC1c1cc2c(cc1[N+](=O)[O-])OCO2 (stereo not given)
→ -2%	i
CC(C)(C)NC(=O)NC(=O)CN1CCN(S(=O)(=O)c2ccc3c(c2)CCCC3)CC1
→ -20%	?
CC(C)c1nnc(NC(=O)CCCCCN2C(=O)C3C4C=CC(C4)C3C2=O)s1 (stereo not given)
→ -2%	6%
CN(C(=O)COC(=O)CNC(=O)C12CC3CC(CC(C3)C1)C2)C1CCS(=O)(=O)C1 (stereo not given)
→ -4%	-12%
Cc1cccc(NC(=O)c2ccc(S(=O)(=O)N3CCCCC3)cc2)c1
→ -24%	-17%
COc1cccc(CNC(=O)c2nc(Cn3nc(C)c(Br)c3C)no2)c1
→ -15%	-9%
CCOC(=O)C(C)Sc1nc(=O)n2cccc(C)c2n1 (stereo not given)
→ -3%	-16%
C=CCC(O)c1c(-c2ccccc2)nn(C)c1Cl (stereo not given)
→ -7%	i
